High-throughput results deposited in PubChem by several laboratories.
HIV Env fusion = HIV envelope-mediated fusion inhibition | HeLa-JRFL Env/CEM21 cell fusion, luciferase | inhibition, % at 12.3 µM | hit rate 1.1% among 360,000;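 active means mean replicate inhibition score of at least 50 and every replicate individually at or above 50; inconclusive means only one of the two criteria met; inactive means mean below 50 and not all replicates reaching 50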;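 further: 0% = plate neutral controls and 100% = maraviroc near 300 nM; one replicate is shown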
UUG fidelity = alters start codon recognition fidelity in yeast. hit rate 0.13% among 350,000. S. cerevisiae UUG-firefly luciferase reporter, luminescence/redox ratio. activity score, % at 18.7 µM;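 active means replicate mean at a twofold rise or more, about +100% in these data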;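 further: firefly luciferase made from a UUG start codon reports start codon fidelity; reporter light over untreated wells divided by growth signal over untreated wells; some hits fall short of that in this replicate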
Rce1 inh = yeast Ras-converting enzyme inhibition; Q03530; yeast membranes, quenched prenylated peptide cleavage fluorescence; calls only; hit rate 0.27% among 290,000; AID 2563;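 active means fall in fluorescence gain of 50% or more versus controls, with final raw signal at or below 3038400; inconclusive means same 50% fall but final raw signal above 3038400; inactive means fall in fluorescence gain under 50%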;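 further: plate controls were neutral control wells for no effect and wells lacking membranes for full effect; tested at 10 µM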
CSC inhib = cancer stem cell inhibition | cancer stem cell-like cells viability, luminescence | inhibition, % at 7.5 µM | hit rate 1.1% among 300,000 | AID 2717;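 active means mean at 75% or more and at least half the replicates too; inconclusive means mean and replicates disagree; tested in HMLE shEcad cells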;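 further: 0% = median of negative and 100% = median of positive control wells; the first replicate is given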
eIF4H FP inh = inhibitors of RNA binding by human eIF4H; Q15056; eIF4H fluorescence polarization binding assay; inhibition, % at 35 µM; hit rate 0.94% among 290,000; AID 2012;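 active means 50% or more with normal probe brightness, or confirmed in later tests; inconclusive means above 50% with abnormal brightness, or retests that disagree; inactive means below 50% or failed in later tests; about a fifth of its hits are not listed in these tables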;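 further: calls also rest on retests at 20 µM and on dose response follow-up; 0% = protein and probe with vehicle and 100% = probe without protein; strong numbers were not always called active; many hits fall short of the cut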
PABP polyA inh = blocks human PABP binding to poly(A) RNA. P11940. AID 2014. inhibition, % at 35 µM. fluorescence polarization. hit rate 1% among 290,000;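 active means 50% or more with normal probe brightness, or confirmed in later tests; inconclusive means above 50% with abnormal brightness, or retests that disagree; inactive means below 50% or failed in later tests; about a fifth of its hits are not listed in these tables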;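 further: calls also rest on retests at 20 µM and on dose response follow-up; controls were probe without protein and protein plus probe with vehicle; some compounds called inactive have numbers as strong as hits; many hits fall short of the cut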
Target sequence (P11940 whole entry, looked up): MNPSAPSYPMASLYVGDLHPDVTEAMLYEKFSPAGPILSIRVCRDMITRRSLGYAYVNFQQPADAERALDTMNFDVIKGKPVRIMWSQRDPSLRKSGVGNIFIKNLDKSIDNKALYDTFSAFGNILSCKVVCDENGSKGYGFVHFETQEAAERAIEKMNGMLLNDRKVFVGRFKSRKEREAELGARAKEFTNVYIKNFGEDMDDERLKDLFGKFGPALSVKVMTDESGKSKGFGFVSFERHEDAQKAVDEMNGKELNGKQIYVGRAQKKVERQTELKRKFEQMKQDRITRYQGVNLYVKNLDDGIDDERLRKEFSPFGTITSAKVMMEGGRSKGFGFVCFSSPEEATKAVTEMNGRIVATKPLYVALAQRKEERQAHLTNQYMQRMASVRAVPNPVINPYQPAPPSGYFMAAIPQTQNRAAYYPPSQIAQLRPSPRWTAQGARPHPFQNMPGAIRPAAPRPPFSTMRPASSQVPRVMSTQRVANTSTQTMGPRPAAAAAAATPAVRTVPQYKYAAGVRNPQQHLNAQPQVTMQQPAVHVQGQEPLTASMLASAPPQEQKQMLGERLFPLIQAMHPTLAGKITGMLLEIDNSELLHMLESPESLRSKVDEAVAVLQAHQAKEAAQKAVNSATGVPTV
MT1-MMP act inh = inhibitors of human MT1-MMP activation; P50281; HT1080 RFP-PRO-GFP cells, GFP/RFP ratio fluorescence, overnight; percent of plate control window, DMSO zero; GFP/RFP ratio change, % at 20 µM; hit rate 0.061% among 360,000; AID 651647;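 active means GFP/RFP ratio change of at least 30% with cell ATP level not reduced by more than half and red fluorescence within 50% of control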; further: strong numbers were not always called active
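Material: RFP-PRO-GFP reporter HT1080 cells. Dosing: single-point 20 µM compound, 1% DMSO. Controls: DMSO and RFP-L50D-GFP cell wells. Timing: cells overnight before dosing, compound overnight, 37 °C, 5% CO2. Measure: GFP/RFP fluorescence ratio.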
eIF4H FP inh retest = recorded beside eIF4H FP inh, whose call it bears; inhibition, %; compound at 20 µM; confirmation average;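 mean of two retest wells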
PABP polyA inh retest = further read-out of PABP polyA inh, marked with its call; inhibition, %; compound at 20 µM; confirmation repeats;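 mean of two retest wells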
MT1-MMP act inh RFP = further read-out of MT1-MMP act inh, marked with its call; RFP signal change, %; measured here: RFP expression control read;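 0 = vehicle wells; hits needed this value within 50% of zero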
The depositor's hits bear a star; i = inactive; ? = inconclusive; · = no result given; & = joins results of further samples. The list is partial (hit frequency here may not be typical).

SMILES | HIV Env fusion | UUG fidelity | Rce1 inh | CSC inhib | eIF4H FP inh | PABP polyA inh | MT1-MMP act inh | MT1-MMP act inh RFP | others
Fc1ccccc1CCNCc1ccccc1 | -1.1 | 7.6 | i | 18.0 | 11.5 | 9.9 | 0.1 | 0.0
Fc1cccc(F)c1CN1CCN(c2ccc(Cl)cc2)CC1 | 9.8 | -11.1 | i | -2.5 | -11.6 | 11.1 | -0.9 | -6.8
COc1ccccc1N1CCN(Cc2ccccc2F)CC1 | 11.2 | -5.7 | i | -9.1 | 3.2 | 17.8 | -1.8 | 2.8
COc1ccc(C(=O)C2CCCN(CCc3ccccc3)C2)cc1OC (configuration not stated) | 6.8 | -20.6&6.8 | · | · | · | · | 6.0 | 8.0
CC12CCCCC1=NC(c1ccc(Br)cc1)N2O (configuration not stated) | -31.3 | 2.3 | i | -9.1 | 0.8 | 8.4 | 1.3 | 3.1
Clc1ccc(OCC#CCN2CCOCC2)cc1 | -13.6 | -10.0 | i | -3.3 | 9.5 | 13.6 | 1.9 | -0.7
C[N+](C)(C)CC#CCOC(=O)Nc1cccc(Cl)c1 | 9.4 | -11.8 | i | -7.3 | · | · | -0.4 | 1.2
CC(Cc1ccccc1)NC=O (configuration not stated) | · | -17.0 | · | -4.9 | -2.8 | 9.5 | -0.1 | -1.2
O=C1NC(=S)N(c2ccc(F)cc2)C(=O)/C1=C/c1ccccc1O | 20.0 | -8.8 | i | -4.1 | -2.9 | -0.5 | -11.2 | -3.5
C[C@H]1CC[C@@H]2N(C1)C[C@H]1[C@@H]3C[C@H]4[C@@H](CC(=O)[C@H]5C[C@@H](O)CC[C@@]54C)[C@@H]3CC[C@H]1[C@]2(C)O | -18.7 | 3.3 | i | -16.9 | 5.3 | 0.8 | -2.7 | -1.0
COC(=O)N1CCN(C(=O)Cc2ccc(Cl)c(Cl)c2)C(CN2CCCC2)C1 (configuration not stated) | · | · | i | -7.7 | -1.6 | 4.4 | · | ·
CCN(CC)CCCNC(=O)c1c(O)c2ccccc2n(Cc2ccccc2)c1=O | · | · | i | -7.8 | 5.0 | 3.7 | 3.7 | 0.6
COC(=O)C1=C(c2ccccc2OCc2ccccc2)C[C@@H]2CC[C@H]1N2C(=O)NCCOc1ccc(OC)cc1 | -29.9 | 7.8 | · | 10.1 | · | · | -11.2 | -11.0
CCC1(OC(=O)c2ccccc2)CC(C)N(C)CC1C (configuration not stated) | 9.5 | -14.4 | i | -12.1 | 6.0 | -7.2 | 2.9 | 1.6
COc1ccccc1CN1CCN(C(=O)COc2ccc3ccccc3c2)CC1 | 7.4 | -18.4 | i | -8.9 | -3.8 | -7.3 | -5.8 | 0.9
O=C(CNC(=O)c1ccccc1Cl)Nc1ccc(Br)cc1C(=O)c1ccccc1 | -4.2 | · | i | -3.2 | 1.5 | -2.0 | -0.2 | -0.9
CCN(CC)S(=O)(=O)c1ccc(NN=C(C#N)C#N)cc1 | -8.4 | · | i | 12.2 | -0.8 | -2.2 | -9.0 | -5.7
C[C@]12CCC3=C4CCC(=O)C=C4CC[C@H]3C1CC[C@@H]2O (some centres not stated) | 56.4* | 36.6 | i | -6.8 | -5.0 | 3.7 | 0.1 | 0.4
Fc1ccc2c(c1)nnn2C1CCN(Cc2c(Cl)cccc2Cl)CC1 | · | -6.6 | i | -2.2 | -3.6 | -9.2 | -4.8 | -9.0
COC(=O)C1=C(c2ccc(OCc3ccccc3)cc2)C[C@@H]2CC[C@H]1N2C(=O)NCc1ccc2[nH]ccc2c1 | -493.8 | -5.8 | · | · | · | · | -4.9 | -8.8
OC(CC#CCN1CCCCCC1)(c1ccccc1)C1CCCC1 (configuration not stated) | 34.6 | 15.1 | i | 18.1 | -2.6 | 13.5 | -1.3 | -2.0
COC(=O)C1=C(c2cccc(C#N)c2)C[C@@H]2CC[C@H]1N2C(=O)NC1CC1 | -7.3 | -5.4 | · | -12.8 | · | · | 3.9 | 4.6
Cc1[nH]c2ccc(OCc3ccccc3)cc2c1CCN | -7.8 | -18.4 | i | -4.6 | -1.0 | 2.7 | 1.8 | 2.8
COc1cc2c(cc1OC)C(C(=O)NCCC(C)C)C1CCCCN1C2=O (configuration not stated) | -34.9 | -7.0 | i | 1.1 | -8.7 | -8.5 | 6.0 | 2.6
O=C1NC(=S)N(c2ccc(F)cc2)C(=O)/C1=C\c1ccoc1 | · | -21.7 | · | · | ? | 5.1 | -29.6 | 8.1
COc1cc(/C=N/NC(=O)Cn2c([N+](=O)[O-])cnc2C)ccc1OC(=O)N(C)C | · | -37.6 | i | 0.3 | -4.6 | -3.2 | 2.3 | -0.1
COc1ccc(OC)c(C2=NOC(C(=O)N3CCC4(CC3)OCCO4)C2)c1 (configuration not stated) | -6.4 | 11.6 | i | -1.6 | -16.3 | -4.4 | 2.9 | 2.0
CC1CCN(C(CC(=O)c2ccccc2)C(=O)c2ccccc2)CC1 (configuration not stated) | -11.6 | 3.4 | · | · | · | · | -6.5 | 0.0
O=c1[nH]c(O)c(N=Nc2cccc(S(=O)(=O)N3CCOCC3)c2)c(=O)[nH]1 | -1.1 | · | · | -7.3 | 1.0 | -1.3 | 0.9 | 5.5
Cn1cc(C(=O)OCC(=O)NC2(C#N)CCCC2)c2ccccc21 | -5.0 | -8.3 | · | 5.0 | · | · | -0.4 | 0.8
CC(=O)N1CN2CN(C(C)=O)CC(C(=O)c3ccc(Br)cc3)(C2)C1 | · | -3.4 | i | -6.8 | -8.8 | -9.6 | 0.9 | 1.2
CCOC(=O)N1CCC(NC(=O)CCc2nc(C3=CCN(C)CC3)no2)CC1 | 11.7 | -17.6 | i | -12.7 | -8.2 | 0.2 | -0.6&4.7 | 3.4&2.7
COC(=O)C1=C(c2ccc(-c3ccccc3)c(F)c2)C[C@@H]2CC[C@H]1N2C(=O)NCCOc1ccccc1Cl | 3.2 | -17.2 | · | 27.0 | · | · | -5.1 | -14.1
CN1/C(=C\C=C2C(=O)NC(=S)NC2=O)C(C)(C)c2ccccc21 | 25.8 | · | i | · | ? | -7.7 | -10.4 | 64.5
COc1ccc(C(c2nnnn2-c2ccc(OC)cc2)N2CCC3(CC2)C(=O)NCN3c2ccccc2)cc1 (configuration not stated) | -75.1 | 1.1 | · | · | · | · | -5.5 | -11.4
Cn1c(O)c(C(=O)c2ccccc2F)c(=O)n(C)c1=O | -110.7 | -10.4 | i | · | 6.4 | 8.1 | -2.9 | 8.6
CCn1c(O)c(/C=N/N2CCOCC2)c(=O)n(CC)c1=S | 26.1 | · | i | 3.3 | ? | -0.6 | -4.2 | 3.8
COc1nc(NCC2CCCO2)nc(N2CC3CC(C2)c2cccc(=O)n2C3)n1 (configuration not stated) | 14.6 | -8.1 | i | -11.3 | 0.6 | 1.0 | 1.1 | 2.8
CC12CN3CC(C)(CN(C1)C3c1cccs1)C2O (configuration not stated) | -18.5 | -20.7 | i | -5.8 | 5.1 | -3.5 | -1.6 | -2.1
CCN(CCCl)Cc1ccccc1Br | 48.2 | -5.2 | i | -3.2 | · | · | 0.3 | 2.5
O=c1[nH]c(N2CCN(Cc3ccc4c(c3)OCO4)CC2)nc2c1CCC2 | · | -9.3 | · | -5.3 | -0.5 | 0.3 | 2.6 | 6.6
N=Cc1c(O)n(-c2ccc(C34CC5CC(CC(C5)C3)C4)cc2)c(=O)[nH]c1=O | -14.5 | · | i | 26.0 | 94.4 | -1.1 | -4.9 | 1.3 | eIF4H FP inh retest=-4.5;PABP polyA inh retest=10.9
COc1ccc(CCNCc2ccccc2F)cc1OC | · | -6.1 | i | -6.1 | 10.5 | 1.1 | 6.2 | 8.3
CN1C(=O)C(=Cc2coc3ccccc3c2=O)C(=O)N(C)C1=O | -9.0 | · | i | -9.3 | ? | ? | -3.0 | 1.4
COP(=O)(OC)/C(C=O)=N/Nc1ccc([N+](=O)[O-])cc1 | 13.0 | · | i | -14.0 | -8.4 | -11.5 | 4.3 | -3.3
Cc1nc2nc(SCC(=O)N3CCC4(CC3)OCCO4)nn2c(C)c1Cc1ccccc1 | 29.1 | -11.9 | i | · | 0.1 | 2.1 | 5.4 | -4.2
COc1ccc(CCn2c(O)c(C=NCCN3CCCCC3)c(=O)[nH]c2=O)cc1OC | -7.4 | -4.9 | i | 0.2 | 1.9 | -0.8 | 2.8 | 1.5
CCOC(=O)c1sc(/N=C/c2c(O)n(-c3cccc(C)c3)c(=O)[nH]c2=O)c(C#N)c1C | -70.1 | -8.3 | i | · | ? | -6.7 | -11.9 | 2.5
CN1CCN(c2ncnc(Cl)c2N)CC1 | 14.2 | 7.4 | · | · | 5.2 | 1.3 | 0.9 | 8.3
COc1cc(CNCCc2ccc3c(c2)OCO3)ccc1O | -9.7 | -4.9 | i | -9.5 | -3.9 | 9.9 | 1.0 | 2.3
CCOP(=O)(OCC)/C(C#N)=C/c1ccc(Br)cc1 | 32.8 | · | i | -6.2 | 3.2 | 15.9 | -0.6 | 1.1
O=C1CC(N2CC2)C(=O)N1c1ccccc1 (configuration not stated) | -48.2 | -0.9 | · | · | · | · | -5.2 | -2.1
C[C@]12CCC3C(C1CCC2=O)[C@H](O)C[C@H]1C[C@@H](O)CC[C@]31C (some centres not stated) | 1.3 | -5.3 | · | -7.6 | · | · | 1.3 | 1.2
CN1CC(C#N)C2(O)c3ccccc3CCC2C1 (configuration not stated) | -5.6 | -14.9 | i | -4.1 | -6.0 | -3.7 | 1.3 | 3.8
CC(C)(C)NCC(O)c1cc(Cl)c(N)c(Cl)c1 (configuration not stated) | 5.4 | -5.6 | i | 1.5 | -3.2 | 1.5 | -0.2 | 4.0
COc1ccc(CCN(C)Cc2ccc(F)cc2F)cc1OC | -3.0 | -2.2 | i | -7.1 | -4.8 | 5.7 | 7.5 | 0.5
CC(=O)Nc1ccccc1C(=O)OCC(=O)c1ccc2ccccc2c1 | ? | -2.3 | i | -11.2 | -4.7 | -5.0 | 3.7 | -5.3
COC(=O)C1=C(c2ccc(C(C)=O)cc2)C[C@@H]2CC[C@H]1N2C(=O)NCCNC(C)=O | 7.6 | -1.5 | · | -15.1 | · | · | 0.0 | 2.6
CC1CCN(c2cc(Br)c([N+](=O)[O-])cc2F)CC1 | 1.4 | 3.2 | i | -18.3 | -11.5 | -3.0 | 9.3 | -4.9
CCc1ccc(CN2CCN(Cc3ccc(SC)cc3)CC2)cc1 | 11.5 | · | i | 49.6 | 17.5 | ? | -0.6 | -13.0

The list goes on.
SMILES | HIV Env fusion | UUG fidelity | Rce1 inh | CSC inhib | eIF4H FP inh | PABP polyA inh | MT1-MMP act inh | MT1-MMP act inh RFP | others
CCN1CCN(Cc2ccc(C)cc2)CC1 | -18.4 | -4.7 | i | -12.5 | 4.7 | 21.6 | -1.1 | 2.7
CN(C)C(=O)Oc1ccc(-c2nnco2)cc1 | -13.7 | 0.3 | i | 1.4 | -12.7 | 1.1 | 3.9 | 0.4
O=C(CCC(=O)N1C[C@H]2C[C@@H](C1)c1cccc(=O)n1C2)NCc1ccccc1C(F)(F)F | · | -9.6 | · | 1.7 | · | · | -4.2 | 4.7
CN1CCN(Cc2cc(=O)n3ccsc3n2)CC1 | 2.9 | -8.1 | i | 1.0 | 9.2 | 2.4 | -1.7 | 5.3
